Cruzain noTriton – inhibitors of Trypanosoma cruzi cruzain without detergent; purified cruzain, Z-FR-AMC fluorescence, no detergent; P25779; AID 1476; hit rate 2.3% among 200,000; Potency, µM, inactives show max response, negative = inhibition, most hits filed as inhibitors;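 also: plate controls were enzyme without inhibitor for no effect and buffer without enzyme for full effect; nearly all actives have a fitted effect of over 40% in size; top concentration of the series not given in the record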
Target sequence (P25779 123-467 limits assumed): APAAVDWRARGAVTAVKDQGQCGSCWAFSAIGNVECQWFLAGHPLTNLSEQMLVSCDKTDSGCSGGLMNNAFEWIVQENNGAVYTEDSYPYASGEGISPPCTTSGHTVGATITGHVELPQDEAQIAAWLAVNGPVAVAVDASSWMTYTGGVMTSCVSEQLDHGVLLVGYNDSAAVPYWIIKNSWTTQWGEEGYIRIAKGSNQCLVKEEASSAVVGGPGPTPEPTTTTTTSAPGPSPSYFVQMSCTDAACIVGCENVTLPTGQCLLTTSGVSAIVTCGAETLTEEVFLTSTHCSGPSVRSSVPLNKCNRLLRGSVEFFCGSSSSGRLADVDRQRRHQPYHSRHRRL
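Detergent-free condition (0.00005% Triton X-100) in acetate buffer pH 5.5 with DTT. 1.5 nM enzyme and compound were pre-mixed 15 min, then 2 uM Z-FR-AMC substrate added; reaction progress from fluorescence change between first and third reads (60 s).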
SARS PLpro yeast – SARS-CoV PLP inhibition in yeast; S. cerevisiae expressing SARS-CoV PLpro, growth rescue; control for the full effect not named in the record; Potency, µM (titrated, usually from 32.9 µM), for inactives: at the highest dose activity, positive = growth rescue; hit rate 0.19% among 330,000; AID 485353; active means well fitted rising curve with a large enough effect; inconclusive means small, poorly fitted or top-dose-only effect; inactive means no such curve, though single readings can be large or run the other way; also: 0% is about no effect; nearly all actives have a fitted effect of over 55% in size; growth read by luminescence after 48 h
2A StopGo – lowers the luciferase signal of an FMDV 2A StopGo reporter; Potency, µM (doses to about 57.9 µM), inactives show top-dose signal change, negative = less light; hit rate 1.2% among 410,000; human cells with a luciferase reporter of 2A StopGo recoding; control for the full effect not named in the record; AID 1159524; active = well fitted falling curve with a large enough effect; inconclusive = small, poorly fitted or top-dose-only effect; inactive = no such curve, though single readings can be large or run the other way; tested in HEK293T cells; also: % is scaled to controls: 0 for no effect and ±100 for the full control effect; nearly all actives have a fitted effect of over 45% in size; luciferase light after 4 h
Cruzain inh Det – inhibitors of Trypanosoma cruzi cruzain with detergent | purified cruzain, Z-FR-AMC fluorescence, 0.01% Triton | Potency, µM, for the others: max response, negative = inhibition, hits mostly inhibitors | hit rate 0.43% among 200,000 | AID 1478;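 also: plate controls were neutral wells for no effect and buffer without enzyme for full effect; nearly all actives have a fitted effect of over 40% in size; top concentration of the series not given in the record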
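Compounds were screened in titration against cruzain (1.5 nM) with 0.01% Triton X-100 to counter colloidal aggregation. Activity was the AMC fluorescence increase over 60 s after adding 2 uM Z-FR-AMC at pH 5.5.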
MARV entry inh – Marburg virus entry inhibition. Marburg virus pseudotyped entry inhibition, cell reporter; control for the full effect not named in the record; about a third of the inactives were read at about 46 µM. Potency, µM (top dose mostly 37.8 µM), inactives show at the top dose activity change, negative = inhibition, hits mostly inhibitors. hit rate 1.8% among 300,000. AID 540276; active = well fitted inhibition curve with a large enough effect; inconclusive = small, poorly fitted or top-dose-only effect, or effect the other way; inactive = flat fitted curve, though single readings scatter; tested in HEK293 cells; about a fifth of its hits are not listed in these tables; also: % is scaled to controls: 0 for no effect and ±100 for the full control effect; luciferase read-out
Lassa entry inh – Lassa virus entry inhibition. Lassa virus pseudotype entry inhibition, cell reporter; control for the full effect not named in the record. Potency, µM (titrated, usually from 37.9 µM), without a hit: at the top dose activity change, negative = inhibition, usual class: inhibitors. hit rate 1.2% among 300,000. AID 540256; active means well fitted inhibition curve with a large enough effect; inconclusive means small, poorly fitted or top-dose-only effect, or effect the other way; inactive means flat fitted curve, though single readings scatter; tested in HEK293 cells; also: % is scaled to controls: 0 for no effect and ±100 for the full control effect; nearly all actives have a fitted effect of over 50% in size; luciferase read-out
RE007 growth inh – less growth of the S. pombe RE007 Vpr strain; S. pombe RE007 Vpr strain, BacTiter-Glo ATP luminescence, 24 h; control for the full effect not named in the record; Potency, µM (titrated, usually from 92.2 µM), for inactives: at the highest dose activity change, negative = less growth; AID 651644; hit rate 0.21% among 360,000; active = well fitted falling curve with a large enough effect; inconclusive = small, poorly fitted or top-dose-only effect; inactive = no such curve, though single readings can be large or run the other way;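 also: % is scaled to controls: 0 for no effect and ±100 for the full control effect; nearly all actives have a fitted effect of over 50% in size; the assay follows cell death caused by Vpr and the record does not say whether a fall means rescue or toxicity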
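Fission yeast strain RE007, carrying one chromosomally integrated HIV-1 vpr copy, was seeded at OD 0.01 in PMG+AL medium with 23 nL pinned compound. After 24 h at 30 °C and 99% humidity, viability was read by BacTiter-Glo luminescence.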
NS1 function inh – blocks influenza NS1 protein function. S. cerevisiae slowed by influenza A NS1, growth recovery by OD600. Potency, µM (series often up to 46.1 µM), for inactives: at the highest dose activity, positive = more growth. hit rate 0.4% among 270,000. AID 2326; active means well fitted rising curve with a large enough effect; inconclusive means small, poorly fitted or top-dose-only effect; inactive means no such curve, though single readings can be large or run the other way; also: nearly all actives have a fitted effect of over 50% in size
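In this qHTS, NS1 from influenza A is expressed in budding yeast, where it slows growth. Cells are switched from glucose to 2% galactose medium (pH 6.0, -URA), treated with compound, and growth recovery is read at OD600.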
Starred values were filed as active, the others as inactive; ? = inconclusive; . = no result given; [ ] = dose if it differs, or a comment. Unless noted, calls follow the shape of the dose curve; as a rule, active = well fitted curve in the direction sought with a large enough effect; inconclusive = small, poorly fitted or top-dose-only effect, or another doubt; inactive = no such curve, though single readings can be large; an effect the other way counts as inactive or inconclusive. Potency is read from the fitted curve at half-maximal effect.

mol,RE007 growth inh,Lassa entry inh,Cruzain noTriton,Cruzain inh Det,MARV entry inh,SARS PLpro yeast,NS1 function inh,2A StopGo
COCCn1c(C)cc(/C=C2/NC(=O)N(c3ccc(Cl)cc3)C2=O)c1C,6%,5%,-17%,-2.5%,-15%,19%,?,-3%
CN1CCN(C(=O)CCCOc2cc(=O)n(C)c3ccccc23)CC1,6%,?,-4%,8.5%,?,-3%,6%,60%[activator]
CC(=O)Nc1ccc(S(=O)(=O)N2CCN(C(=O)N3CCCC3)CC2)cc1,-2%,.,.,.,4%[46.1 µM],0%,6%,0%
COc1ccc(N(C(=O)c2ccccc2C)S(=O)(=O)c2cccs2)cc1,-1%,?,-10%,-2.2%,?,-5%,?,19%
c1ccc(N2CCN(c3ncnc4c3oc3ccccc34)CC2)cc1,8%,7%,-19%,-13%,?,2%,-108%,35µM*
O=C(c1ccco1)n1nc(-c2ccccc2)nc1SCc1ccccc1,-28%,-4%,?,0.5%,4%,-14%,-4%,48%[activator]
Cn1c(=O)oc2cc(S(=O)(=O)N3CCC(C(=O)NCc4cccs4)CC3)ccc21,-6%,.,-21%,1.5%,-6%,-4%,4%,-5%
CCCCn1c(N)c(N(CC(C)C)C(=O)CN2C(=O)C3CCCCC3C2=O)c(=O)[nH]c1=O (stereo not given),0%,10%,.,.,-2%[46.1 µM],4%,.,6%
O=C(Nc1cccc(OC(F)(F)F)c1)c1ccc(Br)o1,?,0%,8%,-9.0%,-16%,-11%,-154%,17%
O=C1NC(=Nc2ccccc2)CS1,3%,.,.,.,.,0%,-1%,-5%
CCCCCC(=O)NNC(=O)Cc1ccc([N+](=O)[O-])cc1,7%,7%,.,.,19%[46.1 µM],-1%,.,0%
Cc1cc2nc(N3CCN(C(=O)c4cccs4)CC3)sc2cc1C,-22%,29%,.,.,?,2%,.,0%
CCCCCC1CC(/C(C)=N/NC(N)=O)OC1=O (stereo not given),33%,10%,-5%,0.8%,9%,-1%,-3%,-8%
Cc1ccc2c(c1)cc(CN(Cc1ccco1)C(=O)COc1ccccc1)c1nnnn12,3%,?,11%,2.3%,?,-9%,-12%,?
CCC(C)Nc1nc(OCC(F)(F)F)nc(OCC(F)(F)F)n1 (stereo not given),-3%,-2%,-1%,-2.4%,10%,6%,-4%,2%
COc1cc(Cl)ccc1OCc1cc(C(=O)N2CCCC(OC)C2)no1 (stereo not given),0%,?,.,.,?,-3%,-12%,81%[activator]
Brc1ccc(-c2cnc(-c3cccs3)o2)cc1,?,?,-5%,-18%,?,-27%,-42%,31%[activator]
COc1ccc(-c2onc(C)c2C)cc1S(=O)(=O)NCCc1ccco1,3%,-10%[46.1 µM],.,.,-22%[46.1 µM],-4%,-6%,-23%
CCc1ccc(NC2=NCC(c3ccccc3)S2)cc1 (stereo not given),-1%,-9%,.,.,-29%[46.1 µM],1%,.,29%
COc1ccc(NS(=O)(=O)c2cccc(C(=O)NCCCn3ccnc3)c2)cc1,-11%,2%,.,.,7%,-1%,.,-1%
CCc1cc(-c2nnc(SCC(=O)NC3CC3)n2C)cs1,-1%,0%,.,.,9%[46.1 µM],0%,-3%,6%
CCCOc1ccc(/C=N\NC(=O)CCc2n[nH]c(=O)[nH]c2=O)cc1OC,-5%,-2%[46.1 µM],.,.,13%[46.1 µM],-1%,.,-7%
COc1cc(OC)c2ccc(=O)oc2c1C(CCN1CCCCC1)c1ccc(N(C)C)cc1 (stereo not given),5%,.,.,.,.,0%,-10%,-24%
COc1ccc(C(C(=O)NC2CCCCC2)N(C(=O)c2snc(C(N)=O)c2N)c2ccc(OC)cc2OC)cc1 (stereo not given),0%,?,.,.,?,-1%,-14%,6%
O=C(NCc1ccncc1)C(=O)NCC(c1ccccc1)c1ccccc1,.,2%,1%,-5.7%,13%,-10%,2%,.
COc1ccc(S(=O)(=O)N2CCCC2)c2ccccc12,1%,?,.,.,?,3%,-19%,7%
COc1ccc(-c2cc(C(=O)Nc3ccc(C)cc3)no2)cc1,-1%,0%,20µM*,0.8%,9%,.,-1%,23%
CCc1ccccc1NC(=O)CSc1nnc(-c2ccccc2)c(-c2ccccc2)n1,.,-23%[46.1 µM],-1%,0.7%,.,.,.,?
O=C(CN1C(=O)c2cccnc2Oc2ccc(Cl)cc21)NC1CCCCCC1,-7%,?,.,.,-8%[46.1 µM],-49%,14%,-11%
N#CC1=C(S)N(c2ccccc2)C(c2ccco2)NC1=O (stereo not given),-7%,1%,.,.,-4%[46.1 µM],1%,10%,?
COc1ccc(CNc2nc(-c3ccco3)nn2S(=O)(=O)c2ccc3ccccc3c2)cc1OC,.,-3%[46.1 µM],12%,-2.6%,-6%[46.1 µM],.,.,10%
CC(=O)Nc1c(Br)cc2c(c1Br)C(=O)c1ccccc1-2,11%,11%,.,.,16%,.,.,-7%
S=c1[nH]nc(Nc2cccc(Cl)c2)s1,-4%,4%,.,.,?,3%,.,-5%
Cc1cccc2[nH]c3c(N4CCC5(CC4)OCCO5)ncnc3c12,-2%,-23%,2%,-4.4%,?,-6%,-5%,40µM*
CC(C)(C)c1ccc(-c2nc(N)nc(N)n2)cc1,-17%,.,.,.,.,-1%,-9%,4%
O=C(CSc1ncccc1C(=O)Oc1ccccc1Cl)Nc1ccccc1Cl,.,?,-8%,0.4%,.,.,.,28%
O=C(CCS(=O)(=O)c1cccs1)Nc1ccc(C(=O)Nc2ccccc2F)cc1,.,11%[46.1 µM],-16%,1.5%,-1%[46.1 µM],.,.,-8%
CN(C)NC(=O)c1ccsc1NC(=O)c1ccc(S(=O)(=O)N2CCCC2)cc1,28%,?,.,.,?,-3%,-2%,-20%
O=S(=O)(NCc1ccccc1)c1ccc(Br)s1,-12%,.,.,.,.,-11%,-42%,53%[activator]
COc1ccc(N2CCN(C(=O)c3c(C)nn(-c4ccc(F)cc4)c3-n3cccc3)CC2)cc1,.,21%[46.1 µM],?,-6.0%,.,.,.,?
CCC1CN(C(=O)N2CCC(C(=O)N3CCN(c4cccc(C)c4C)CC3)CC2)c2ccccc2O1 (stereo not given),.,-23%[46.1 µM],-4%,-3.9%,.,.,.,?
CCN(C(=O)Cn1c(=O)oc2cc(Cl)ccc21)c1cccc(C(F)(F)F)c1,.,19%[46.1 µM],5%,-6.0%,-6%[46.1 µM],.,.,0%
CC(C)CCNC(=O)c1ccc2c(c1)NC(=O)C(CS(=O)(=O)Cc1ccc(F)cc1)N2 (stereo not given),.,-6%[46.1 µM],-30%,-4.7%,.,.,.,-15%
CN(CC(=O)O)S(=O)(=O)/C=C/c1ccccc1,2%,-3%[46.1 µM],.,.,5%[46.1 µM],0%,16%,-14%
O=C(O)CCn1cc(C=C2C(=O)NC(=S)NC2=O)c(-c2ccccc2)n1,6%,4%,.,.,?,1%,13%,-5%
O=C(Cn1c(=O)oc2ccccc21)c1ccccc1,-2%,-2%,-5%,1.9%,-2%[46.1 µM],-2%,3%,10%
CCOc1cc(/C=C2\C(=N)N3N=C(CC)SC3=NC2=O)ccc1OCCOc1ccc(NC(C)=O)cc1,9%,.,.,.,6%,1%,0%,-19%
CCCn1c(N)c(C(=O)CSc2nnc(C3CC3)n2C2CC2)c(=O)[nH]c1=O,3%,20%,.,.,10%,10%,.,2%
COc1ccccc1C=NNC(=O)C(=O)NN=Cc1ccccc1OC,5%,28%[46.1 µM],.,.,15%[46.1 µM],.,.,-1%
COC(=O)c1cc2oc(C)cc2n1CC(=O)Nc1ccc(C)cc1C,.,.,12%,-1.8%,?,.,.,-6%

Further entries.
mol,RE007 growth inh,Lassa entry inh,Cruzain noTriton,Cruzain inh Det,MARV entry inh,SARS PLpro yeast,NS1 function inh,2A StopGo
Cc1ccc(SCC(=O)OCC(=O)N(C)CC(=O)Nc2ccc(F)cc2)cc1,0%,-1%,.,.,1%[46.1 µM],2%,.,-12%
O=C(NCC(O)c1ccc([N+](=O)[O-])cc1)c1cccc(S(=O)(=O)N2CCCC2)c1 (stereo not given),-4%,0%,.,.,?,0%,0%,-9%
CC(C)CCN1CCC(N)=NC1=O,-10%,-16%,.,.,-1%[46.1 µM],2%,2%,4%
COc1cccc(NC(=O)CSc2ncc(S(=O)(=O)c3ccccc3)c(=O)[nH]2)c1,-2%,.,.,.,.,1%,8%,4%
CN(C)/C=C1/C(=O)Nc2ccccc21,14%,22%,-7%,-5.0%,13%,4%,1%,11%
CC(=O)C1C2c3ccccc3O[C@@]1(C)N=c1s/c(=C/c3ccoc3)c(=O)n12 (stereo not given in full),4%,2%,-5%,-8.4%,?,-8%,9%,-10%
CC(C)(C)OC(=O)N[C@H](Cc1ccccc1)C(=O)N1CCC(C(=O)O)CC1,-4%,2%,1%,3.0%,14%,-4%,3%,-6%
CCN(C(=O)CSc1ccc2c(c1)OCCO2)C1CCS(=O)(=O)C1 (stereo not given),-3%,-1%,-5%,1.6%,-17%[46.1 µM],3%,8%,0%
COC(=O)c1ccccc1NC(=O)c1ccc(=O)n(Cc2cccc(C)c2)c1,.,?,-6%,0.1%,.,.,.,?
Cc1ccc(OCCOc2ccc(Br)cc2/C=N\NC(N)=O)cc1,-11%,.,.,.,.,1%,-1%,-1%
O=C(CSc1nnc(Cn2cnc3ccccc32)o1)Nc1cccc2ccccc12,7%,-3%,-4%,-0.7%,-26%,9%,6%,-22%

Compounds as they come; 4.5% or so of the library scored in one or more.
